Source: PubChem
Mtb H37Rv: Mycobacterium tuberculosis H37Rv growth inhibition, cell based, confirmatory dose response (AID 1949). most inactive calls were filed without a number and no value below 0 was filed. one-dose inhibition, % at 10 µg/mL; IC50 in µg/mL for titrated hits. 100,000 compounds, 1.6% hits;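 active = confirmed in a dose series; inconclusive = about 50% or more but not retested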;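 note: bacteria grown 7 days with compound before Alamar blue readout; 0% = untreated bacteria and 100% = reference antibiotic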
* marks the source's active call; other numbers are inactive results. These rows are one share of the data; rates above refer to the full screens.

How did CC(=O)c1cccc(NC(=O)COc2ccc(S(=O)(=O)NC3CCCCC3)cc2)c1 do in these assays?
Mtb H37Rv: inactive

How did CCC(Oc1ccccc1)C(=O)Nc1cccc(NC(C)=O)c1 (stereo not drawn) do in these assays?
Mtb H37Rv: inactive

What do the screens show for `Cc1ccc(C(=O)N=Nc2c(O)n(C)c3ccccc23)cc1`?
Mtb H37Rv: 3%

How did O=C(CN1C(=O)C2C3C=CC(C3)C2C1=O)Nc1ccc(I)cc1 (stereo not drawn) do in these assays?
Mtb H37Rv: inactive

What do the screens show for `O=C1CCN(C(=O)c2ccccc2F)c2ccccc21`?
Mtb H37Rv: inactive

What do the screens show for `CCOc1ccc(NS(=O)(=O)c2ccc(Oc3ccccc3)cc2)cc1`?
Mtb H37Rv: 3%

Results for Cc1ccccc1NC(=O)CSc1nc(O)c(Cc2ccccc2)c(=O)n1-c1ccccc1 ?
Mtb H37Rv: inactive

What do the screens show for `CCc1ccc(S(=O)(=O)Nc2ccc(O)c(C(=O)O)c2)cc1`?
Mtb H37Rv: inactive

What do the screens show for `COc1ccc(Nc2ncnc3c2cnn3-c2ccc(C)cc2C)cc1OC`?
Mtb H37Rv: 4%

What do the screens show for `CC(=O)c1ccccc1OCCN1CCN(C)CC1`?
Mtb H37Rv: 0%

How did Cc1cc(C)c2[nH]c3c(c2c1)CCCC3=O do in these assays?
Mtb H37Rv: 0%

How did COc1ccc(-c2nc(Cc3ccc(Cl)cc3)no2)cc1OC do in these assays?
Mtb H37Rv: inactive

How did Cc1ccc(OCCCC(=O)Nc2nc3ccc([N+](=O)[O-])cc3s2)cc1 do in these assays?
Mtb H37Rv: 3%

How did O=C1N(c2ccc(Br)cc2)C2CS(=O)(=O)CC2N1c1ccccc1Cl (stereo not drawn) do in these assays?
Mtb H37Rv: inactive

Results for Cc1ccc(C(=O)O/N=C(\N)c2ccc(Cl)cc2)c(C)c1 ?
Mtb H37Rv: 8%

What do the screens show for `O=C(Cc1ccccc1)Nc1ccc(Br)cc1`?
Mtb H37Rv: inactive

How did CC1=NN(C(=S)Cc2ccccc2)C(C)(O)C1 (stereo not drawn) do in these assays?
Mtb H37Rv: 2.8µg/mL*

How did O=C(Nc1c(F)cc(F)cc1Br)c1csc2ccccc12 do in these assays?
Mtb H37Rv: inactive

How did O=C(CCc1ccccc1)Nc1ccc(OCc2ccccc2Cl)cc1 do in these assays?
Mtb H37Rv: inactive

How did Cc1ccc2nc(-c3ccc(NC(=O)CN4CCN(C(=O)C5CCCO5)CC4)cc3)sc2c1 (stereo not drawn) do in these assays?
Mtb H37Rv: 6%

Reprinted from the part before: 5 entries, followed by the next part.
What do the screens show for `O=C(Cc1ccccc1)Nc1ccc(Br)cc1`?
Mtb H37Rv: inactive

How did CC1=NN(C(=S)Cc2ccccc2)C(C)(O)C1 (stereo not drawn) do in these assays?
Mtb H37Rv: 2.8µg/mL*

How did O=C(Nc1c(F)cc(F)cc1Br)c1csc2ccccc12 do in these assays?
Mtb H37Rv: inactive

How did O=C(CCc1ccccc1)Nc1ccc(OCc2ccccc2Cl)cc1 do in these assays?
Mtb H37Rv: inactive

How did Cc1ccc2nc(-c3ccc(NC(=O)CN4CCN(C(=O)C5CCCO5)CC4)cc3)sc2c1 (stereo not drawn) do in these assays?
Mtb H37Rv: 6%

How did Cc1ccc(-c2nnc(OCCN3CCCCC3)c3ccccc23)cc1 do in these assays?
Mtb H37Rv: 0%

What do the screens show for `O=C(c1ccccc1)N1N=C(c2ccccc2)CC1c1ccc2nccnc2c1` (stereo not drawn)?
Mtb H37Rv: 4%

Results for Cc1ccc(N/C=C(\C#N)S(=O)(=O)c2ccccc2)cc1 ?
Mtb H37Rv: inactive

What do the screens show for `Fc1ccc(Nc2ncnc3ccccc23)cc1`?
Mtb H37Rv: 3%

How did COc1ccc(C)cc1NC(=O)N1CCN(c2ccccn2)CC1 do in these assays?
Mtb H37Rv: inactive

What do the screens show for `CC12CCC(C(=O)Nc3ccccc3F)(c3nc4ccccc4nc31)C2(C)C` (stereo not drawn)?
Mtb H37Rv: inactive

Results for Cc1cc(OCC(=O)OCc2ccccc2)c2c(C)cc(=O)oc2c1 ?
Mtb H37Rv: inactive

What do the screens show for `COc1cccc(C2C=C(c3ccc(Cl)cc3)Nc3nnnn32)c1` (stereo not drawn)?
Mtb H37Rv: inactive

Results for OC(CC#CCN1CCOCC1)(c1ccccc1)c1ccccc1 ?
Mtb H37Rv: inactive

What do the screens show for `Cc1ccc2oc(-c3ccc(Cl)c(Cl)c3)cc(=O)c2c1`?
Mtb H37Rv: inactive

How did COc1ccc(CC2(CCc3ccncc3)C(=O)NC(=O)N(c3cccc(C)c3)C2=O)c(OC)c1 (stereo not drawn) do in these assays?
Mtb H37Rv: inactive

How did FC(F)(F)c1cccc(OCCSc2ncccn2)c1 do in these assays?
Mtb H37Rv: 3%

Results for CC1CCc2c(sc(NC(=O)CCCOc3ccccc3)c2C(N)=O)C1 (stereo not drawn) ?
Mtb H37Rv: inactive

Results for Cc1cc(OCC(=O)NC2CC(C)(C)NC(C)(C)C2)cc(C)c1Br ?
Mtb H37Rv: inactive

Results for O=C(Nc1ccc(S(=O)(=O)Nc2ccccn2)cc1)C(F)(F)F ?
Mtb H37Rv: inactive

What do the screens show for `O=C(Nc1ccc(CN2CCOCC2)cc1)c1ccco1`?
Mtb H37Rv: inactive

What do the screens show for `O=C(NC1CC1)c1sc2cc([N+](=O)[O-])ccc2c1Cl`?
Mtb H37Rv: inactive

How did O=C(c1cccc(C(F)(F)F)c1)N1CCOCC1 do in these assays?
Mtb H37Rv: 2%

How did C=C1Cn2c(nc3sc4c(c3c2=O)CCCC4)S1 do in these assays?
Mtb H37Rv: 2%

What do the screens show for `O=c1oc2ccccc2c2c1ncn2C1CCCCC1`?
Mtb H37Rv: inactive

What do the screens show for `CC1=CC(=C2C(=O)N(c3ccccc3)C(=S)N(c3ccccc3)C2=O)C=C(C)N1Cc1ccccc1`?
Mtb H37Rv: 2%

Results for CC1CCCCC1NC(=O)CSc1nnc(COc2ccccc2Cl)n1C (stereo not drawn) ?
Mtb H37Rv: inactive

Results for O=S(=O)(Nc1ccc(Cl)c(C(F)(F)F)c1)c1cccc2cccnc12 ?
Mtb H37Rv: inactive

Results for Cc1cnc(NC(=O)C2CCCCC2C(=O)O)s1 (stereo not drawn) ?
Mtb H37Rv: inactive

How did CC1=CC(C)(C)N(C(=O)CN2C(=O)CCC2=O)c2cc(C)ccc21 do in these assays?
Mtb H37Rv: inactive

Results for CCOC(=O)c1cc(CC)sc1NC(=O)c1ccc(N2C(=O)CCC2=O)cc1 ?
Mtb H37Rv: inactive

How did CCOC(=O)N1CCN(C(=O)Cc2ccc(Cl)cc2)CC1 do in these assays?
Mtb H37Rv: inactive

Results for CCCc1oc(C(=O)O)cc1CN1CCCC1 ?
Mtb H37Rv: inactive

What do the screens show for `CCOC(=O)c1sc2ncn(CC(=O)Nc3cccc(Br)c3)c(=O)c2c1C`?
Mtb H37Rv: inactive

What do the screens show for `CCc1ccc(OCC(=O)Oc2ccc(Cl)cc2C)cc1`?
Mtb H37Rv: 4%

What do the screens show for `Cc1cc(NS(=O)(=O)c2ccc(NC(=O)c3ccc(C(C)(C)C)cc3)cc2)no1`?
Mtb H37Rv: 1.8µg/mL*

Results for CCc1c(C(=O)NCCN(C)C)csc1C ?
Mtb H37Rv: inactive

How did CCOC(=O)c1ccc(NC(=O)CC2C(=O)N(c3ccc(F)cc3)C(=S)N2C2CC2)cc1 (stereo not drawn) do in these assays?
Mtb H37Rv: 12%

What do the screens show for `Oc1ccc(C(=S)N2CCN(c3cccc(Cl)c3)CC2)cc1`?
Mtb H37Rv: inactive

How did CCCOc1ccc(-c2csc(NC(=O)c3cccc(OC)c3)n2)cc1 do in these assays?
Mtb H37Rv: inactive

Results for CCC(C(=O)Nc1nc2ccc(OC)cc2s1)c1ccccc1 (stereo not drawn) ?
Mtb H37Rv: 47%

What do the screens show for `COc1cc(NC(=O)c2ccc(Br)o2)ccc1NC(=O)c1ccccc1Cl`?
Mtb H37Rv: 6.8µg/mL*

Results for Cc1cccc(OCCCC(=O)Nc2nnc(C3CCCO3)s2)c1C (stereo not drawn) ?
Mtb H37Rv: inactive

How did Cc1nnc(SCC(=O)NC23CC4CC(CC(C4)C2)C3)s1 do in these assays?
Mtb H37Rv: inactive

Results for CCCc1c(C)nc2ccc(C)cc2c1SCC(=O)O ?
Mtb H37Rv: inactive

What do the screens show for `C=C(C)c1cccc(C(C)(C)NC(=O)N2CCN(c3ccc([N+](=O)[O-])cc3)CC2)c1`?
Mtb H37Rv: inactive

How did CC(C)c1ccc(O)c(NC(=O)Cc2cccc3ccccc23)c1 do in these assays?
Mtb H37Rv: 2%

Results for CS(=O)(=O)N(CC(=O)NC1CCCC1)c1ccc(Cl)cc1 ?
Mtb H37Rv: inactive

Results for COc1ccc(C(=O)Nc2sc(-c3ccccc3)cc2C(N)=O)cc1 ?
Mtb H37Rv: inactive

Results for O=C(CSc1nnc2ccc3ccccc3n12)Nc1ccc2c(c1)OCCO2 ?
Mtb H37Rv: inactive

Results for Cc1cc2ncn(S(=O)(=O)N3CCCCC3)c2cc1C ?
Mtb H37Rv: inactive

What do the screens show for `COc1cc2c(C(=O)N3CCN(C)CC3)c(C)oc2cc1Br`?
Mtb H37Rv: inactive

What do the screens show for `O=C(NCCc1ccc(F)cc1)c1cc2ccccc2oc1=O`?
Mtb H37Rv: inactive

What do the screens show for `Cc1cc2c(NCc3ccccc3)ncnc2s1`?
Mtb H37Rv: 2%

How did CC(C)(C)N1C(=O)c2ccc(C(=O)Nc3cccc(O)c3)cc2C1=O do in these assays?
Mtb H37Rv: inactive

How did Cc1cc(C(=O)c2ccccc2)ccc1OC(=O)COc1c(C)cccc1C do in these assays?
Mtb H37Rv: inactive

What do the screens show for `Cc1cccc(NC(=O)c2c(Br)cnn2C)c1C`?
Mtb H37Rv: inactive

Results for C=CCn1c(COc2ccc3c(c2)CCCC3)nnc1SCC(=O)Nc1ccc(F)c(Cl)c1 ?
Mtb H37Rv: 6%

How did OCCN(CCO)CC(O)CN1c2ccccc2Sc2ccccc21 (stereo not drawn) do in these assays?
Mtb H37Rv: 5%

Results for CCC(C)c1ccc(NC(=S)Nc2cccc(Cn3cccn3)c2)cc1 (stereo not drawn) ?
Mtb H37Rv: 3%

How did O=C(CN(C1CCCCC1)S(=O)(=O)c1ccccc1)Nc1ccc2c(c1)OCO2 do in these assays?
Mtb H37Rv: inactive

How did Cn1c2c(c(=O)n(C)c1=O)C(NC(=O)c1ccc(Cl)cc1)(C(F)(F)F)C(=O)N2 (stereo not drawn) do in these assays?
Mtb H37Rv: inactive

What do the screens show for `O=C(CN1C(=O)c2ccccc2C1=O)OCc1ccc(Br)cc1`?
Mtb H37Rv: inactive

How did O=C(Cc1cccs1)Nc1ccc(F)cc1F do in these assays?
Mtb H37Rv: inactive

How did O=c1[nH]c(=O)n(-c2ccccc2)c2c1C(C(F)(F)F)(C(F)(F)F)N=C(c1ccncc1)N2 do in these assays?
Mtb H37Rv: inactive

No new results follow: entries from further up.
How did O=C(Cc1cccs1)Nc1ccc(F)cc1F do in these assays?
Mtb H37Rv: inactive

How did O=c1[nH]c(=O)n(-c2ccccc2)c2c1C(C(F)(F)F)(C(F)(F)F)N=C(c1ccncc1)N2 do in these assays?
Mtb H37Rv: inactive

Continued:
How did CC1=NN(c2nc(-c3ccc(Cl)cc3)cs2)C(=O)C1C (stereo not drawn) do in these assays?
Mtb H37Rv: 2.1µg/mL*

How did CCOc1cc(C(=O)Nc2ccc(Cl)c(-c3nc4cc(C)c(C)cc4o3)c2)cc(OCC)c1OCC do in these assays?
Mtb H37Rv: inconclusive

Results for COC(=O)c1ccccc1NC(=O)NCCc1ccc(F)cc1 ?
Mtb H37Rv: inactive

Results for Cc1cc(C)n(-c2ccc3cccc(Nc4cc(C#N)c(C#N)cc4[N+](=O)[O-])c3n2)n1 ?
Mtb H37Rv: inactive

Results for COC(=O)c1c(-c2ccc(C)cc2)csc1NC(=S)NC(=O)c1ccncc1 ?
Mtb H37Rv: inactive

What do the screens show for `Cc1ccc(N(Cc2ccc(C(=O)NCCC3=CCCCC3)cc2)S(C)(=O)=O)cc1C`?
Mtb H37Rv: inactive

Results for COc1cc(NC(=S)N2CCN(C(=O)c3ccco3)CC2)c(OC)cc1Cl ?
Mtb H37Rv: inactive

What do the screens show for `O=C(CSCc1c(F)cccc1Cl)NCc1cccnc1`?
Mtb H37Rv: inactive

Results for COc1cc(CNC(C)(C)CO)cc(Cl)c1OCc1ccc(F)cc1 ?
Mtb H37Rv: inactive

Results for COc1ccc(Nc2cc(C)nc3c(C)cccc23)c(OC)c1 ?
Mtb H37Rv: inactive

How did COC(=O)Cc1cnc(NC(=O)C2C3CCC(C3)C2C(=O)O)s1 (stereo not drawn) do in these assays?
Mtb H37Rv: inactive

Results for COCCNc1oc(-c2cccc(C)c2)nc1C#N ?
Mtb H37Rv: 2%

What do the screens show for `Cn1c(CSCc2ccc(Cl)cc2)nnc1SCC(=O)Nc1nc2ccccc2s1`?
Mtb H37Rv: inactive

Results for COc1c(C)cccc1C(=O)NC(=S)Nc1ccc(Cl)cn1 ?
Mtb H37Rv: inactive

What do the screens show for `O=C(Cn1nc(C(F)(F)F)c2c1CCCCC2)N1CCOCC1`?
Mtb H37Rv: inactive

What do the screens show for `O=C(Nc1cccc([N+](=O)[O-])c1)Nc1nn(Cc2c(F)cccc2Cl)cc1Br`?
Mtb H37Rv: inactive

How did Cc1cc(=O)oc2c(C)c(OC/C=C/c3ccccc3)ccc12 do in these assays?
Mtb H37Rv: inactive

What do the screens show for `CCOCCC(=O)Nc1cc(C)ccn1`?
Mtb H37Rv: 4%

What do the screens show for `CCC(=O)Oc1ccc(-c2cc(-c3ccc(OC(=O)CC)cc3)nc(-c3ccccc3)n2)cc1`?
Mtb H37Rv: 3%

How did CCCCOc1ccc(C2NC(=S)NC(C)=C2C(=O)Nc2ccc(C)cc2)cc1Br (stereo not drawn) do in these assays?
Mtb H37Rv: inactive

How did NC(=O)c1ccccc1NC(=O)c1c(F)c(F)c(F)c(F)c1F do in these assays?
Mtb H37Rv: inactive

Fetched one by one from the entries so far (two):
What do the screens show for `Cn1c(CSCc2ccc(Cl)cc2)nnc1SCC(=O)Nc1nc2ccccc2s1`?
Mtb H37Rv: inactive

What do the screens show for `O=C(Cn1nc(C(F)(F)F)c2c1CCCCC2)N1CCOCC1`?
Mtb H37Rv: inactive
